Bioassay records from PubChem BioAssay.
HCMV NEC inh – inhibitors of HCMV UL50-UL53 nuclear egress complex interaction | inhibition, % (no concentration beside the values) | HTRF UL50-UL53 interaction, normalized percent inhibition | AID 1918969 | hit rate 0.15% among 190,000;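 active = both replicates at 50% or more, plus weaker picks with an unusually low signal ratio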;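 note: stock transfer was 100 nL into about 20 µL; 0% = negative control wells and 100% = wells with untagged competitor protein; inactives centre near -12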
Sa growth 42C – blocks Staphylococcus aureus growth. S. aureus RN4220 growth, OD600, 20 h, 42 °C; stronger effect = lower value. relative growth, % (no concentration beside the values). hit rate 0.53% among 170,000;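 active = growth at 42 °C up to 50% and 20 or more points under that at 30 °C, or under 10% at both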;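 note: 300 nL library stock went into each well; scaled to the means of positive and negative controls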
GIV Gai3 FP – GIV-Galpha-i interaction inhibition | Galpha-i3/FITC-GIV peptide fluorescence polarization, 90 min; stronger effect = lower value; scaled: aluminum fluoride 0%, vehicle 100% | percent of control (FP), % (test concentration not listed) | hit rate 0.42% among 210,000;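 active = replicate mean at 85% of control or lower, very high polarization wells dropped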;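 note: wells of about 15 µL received 100 nL stock; the first replicate is given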
Target sequence (P08753 whole entry, looked up): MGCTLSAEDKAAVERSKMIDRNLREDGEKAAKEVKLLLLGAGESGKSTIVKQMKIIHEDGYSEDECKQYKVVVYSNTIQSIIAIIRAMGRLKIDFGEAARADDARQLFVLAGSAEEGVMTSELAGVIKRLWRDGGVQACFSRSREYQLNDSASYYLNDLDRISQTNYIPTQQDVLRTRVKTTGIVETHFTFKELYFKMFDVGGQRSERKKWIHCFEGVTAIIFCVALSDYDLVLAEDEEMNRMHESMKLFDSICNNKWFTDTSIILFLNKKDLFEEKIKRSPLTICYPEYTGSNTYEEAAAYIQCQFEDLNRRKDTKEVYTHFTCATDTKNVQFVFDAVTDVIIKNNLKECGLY
Sa growth 42C second temp – recorded beside Sa growth 42C, whose call it bears; relative growth, %; measured here: growth at 30 °C;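 optical density after 20 h as mean of two plates; 100% = untreated growth and lower means inhibition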
An asterisk follows results filed as active; . = no result given; & = joins results of further samples. Rows were taken by chance; any-hit rate near 0.8%.

SMILES	HCMV NEC inh	Sa growth 42C	Sa growth 42C second temp	GIV Gai3 FP
O=C1CCCC2=C1C(c1cccc(O)c1)C1=C(N2)c2ccccc2C1=O (configuration not stated)	-19	87	86	104
O=C(Nc1ccc(OC(F)(F)F)cc1)C(NS(=O)(=O)c1cccc2nsnc12)c1ccccc1 (configuration not stated)	-30	100	80	107
CC(=O)N1CCc2c(sc3c2c(=O)n(CCc2ccccc2)c(=O)n3CC(=O)Nc2ccc(C)c(F)c2)C1	-24	98	88	101
O=C(CN1C(=O)CCCc2ccccc21)NCCN1CCN(c2cccc(Cl)c2)CC1	-14	.	.	109
COc1ccc2nc3oc(C(=O)NCc4ccccc4OC)cc3cc2c1	-23	104	91	103
O=C(OCc1ccccc1Oc1ccccc1)c1ccccn1	-27	87	87	.
CC(C)CC1Nc2ccc(C(=O)NCCCOC(C)C)cc2NC1=O (configuration not stated)	-15	103	90	105
Cn1nc(C(=O)NCCCN2CCC(N3CCCCC3)CC2)c2c1-c1ccsc1CC2	-3	.	.	108
COc1cc(OC)c(NC(=O)N2CCOc3ccc(C)cc32)cc1Cl	-4	79	90	104
CC(C)n1cnc2nc(CSc3ccc(NC(=O)c4cccc(Br)c4)cc3)cc(=O)n21	4	.	.	103
CCOc1ccc(NC(=O)Cn2nc(CC)n3c(cc4sccc43)c2=O)cc1	-14	113	93	103
CC(C)Oc1ccc(C(=O)NCC(=O)Nc2ccccc2N2CCOCC2)cc1	-33	103	101	.
OCCN1CCN(CCCN2c3ccccc3Sc3ccc(C(F)(F)F)cc32)CC1	-25&-20&-50&9&-10	98&92&100	77&68&88	100&116&105
Cn1c(=O)n(-c2ccc3c(c2)OCO3)c2nc(-c3ccc(OCc4ccccc4)cc3)nc(C(N)=O)c21	5	.	.	111
O=C1CCC(=O)N1c1ccc(-c2nc3ccccc3c(=O)o2)cc1	-1	98	93	98

Entries of single compounds, quoted from the list. Values in the order: HCMV NEC inh	Sa growth 42C	Sa growth 42C second temp	GIV Gai3 FP
OCCN1CCN(CCCN2c3ccccc3Sc3ccc(C(F)(F)F)cc32)CC1 across the screens: -25&-20&-50&9&-10	98&92&100	77&68&88	100&116&105
CC(C)n1cnc2nc(CSc3ccc(NC(=O)c4cccc(Br)c4)cc3)cc(=O)n21 across the screens: 4	.	.	103
CC(C)CC1Nc2ccc(C(=O)NCCCOC(C)C)cc2NC1=O (configuration not stated) across the screens: -15	103	90	105
O=C(Nc1ccc(OC(F)(F)F)cc1)C(NS(=O)(=O)c1cccc2nsnc12)c1ccccc1 (configuration not stated) across the screens: -30	100	80	107

The list continues:
SMILES	HCMV NEC inh	Sa growth 42C	Sa growth 42C second temp	GIV Gai3 FP
CSc1nc2ccc3nc(NC(=O)c4ccccc4C)sc3c2s1	.	89	93	100
CCOC(=O)c1cc(-c2ccc(C)cc2)n(CCC(=O)NCc2ccccc2)c1C	7	90	89	109
O=S(=O)(Nc1ccc2c(c1)OCO2)c1ccccc1C(F)(F)F	-18	94	96	.
CCOc1ccc(N2CC(C(=O)NC3CC(C)(C)NC(C)(C)C3)CC2=O)cc1 (configuration not stated)	15	93	76	103
O=C1c2cccnc2C(=O)N1Cc1ccc(F)cc1	-14	.	.	97
Cc1nn(CC(=O)Nc2ccc3c(c2)nc2n3CCN(C(C)C)C2)c(=O)c2ccccc12	-26	.	.	100
COCc1cc(C)nc2sc(C(=O)N3CCc4ccccc43)c(N)c12	-22	102	94	101
Cc1ccc(-n2nnc(-c3nsc(NC(=O)c4ccccc4)n3)c2C)cc1	.	106	85	100
Cc1c(C(=O)N(C)C)sc2c1c(=O)n(-c1ccc(Cl)cc1)c(=O)n2CC(=O)C(C)(C)C	.	96	86	100
CC1CCN(S(=O)(=O)c2ccc3c(c2)CCCC(=O)N3)CC1	0	96	82	96
CCOC(=O)N1CCc2c(sc3nc4n(c(=O)c23)N=C(c2ccc(OC)cc2)CS4)C1	-33	80	64	105
COC(=O)c1cccnc1-n1c(=O)c2cccnc2n(CC(=O)Nc2c(C)cc(C)cc2C)c1=O	-1	93	87	99
N/C(=N\OC(=O)c1ccccc1)c1ccc2c(c1)CCO2	-23	95	83	107
Cc1ccc(Cc2c(C)nc3nc(SCC(=O)NCC4COc5ccccc5O4)nn3c2C)cc1 (configuration not stated)	-7	.	.	98
Cn1nccc1/C=C(/C#N)S(=O)(=O)c1ccccc1	-16	99	72	120
CCN(c1ccccc1)S(=O)(=O)c1ccc(F)c(C(=O)Nc2ccc(C)cc2)c1	.	114	101	108
CCOC(=O)c1nc2ccccc2nc1NCc1ccco1	-32	.	.	110
CCOc1ccc2c(c1)C(=C1SC(C(=O)OC)=C(C(=O)OC)S1)C(=S)C(C)(C)N2C(=O)c1sc2ccccc2c1Cl	5	.	.	103
O=C(O)Cc1sc(Nc2ccccc2)nc1-c1ccccc1	-22	91	90	106
COCC(O)CNc1ccccc1 (configuration not stated)	-24	114	98	103
CCOc1ccccc1NC(=O)c1c(Cl)nc2sccn12	-4	116	96	.
CC1CCN(S(=O)(=O)c2ccc3c(c2)N(CC(=O)O)C(=O)CO3)CC1	.	105	93	101
CCc1ccc(C(=O)COC(=O)C2CSC3(C)CCC(=O)N23)cc1 (configuration not stated)	12	111	93	.
Cc1cc(C)cc(NS(=O)(=O)c2ccc3c(c2)C(C(C)C)C(=O)N3)c1 (configuration not stated)	-34	89	65	110
O=C(N=Nc1c(O)[nH]c2ccccc12)c1ccc2c(c1)OCO2	-29	98	88	102
Cc1ccc(-n2c(-c3ccco3)nc3c(cnn3-c3ccccc3Cl)c2=O)cc1	15	101	100	108
CCCN1CCN(CCCNC(=O)C2=C(C)C(=O)OC23CCN(CC)CC3)CC1	5	.	.	102
O=C(CN1C(=O)S/C(=C\c2ccc(O)cc2)C1=O)c1ccccc1	-1	132	96	111
O=C(OCc1ccccc1)c1cnc(Cl)c(Cl)c1	18	79	100	.
Cc1ccc(NC(=O)C2Cc3ccccc3N2C(=O)c2ccccc2)cc1Cl (configuration not stated)	.	99	89	106

Rewritten in CSV form: 7 of the compounds above
Compound,HCMV NEC inh,Sa growth 42C,Sa growth 42C second temp,GIV Gai3 FP
COCC(O)CNc1ccccc1 (configuration not stated),-24,114,98,103
CCOc1ccccc1NC(=O)c1c(Cl)nc2sccn12,-4,116,96,.
CC1CCN(S(=O)(=O)c2ccc3c(c2)N(CC(=O)O)C(=O)CO3)CC1,.,105,93,101
CCc1ccc(C(=O)COC(=O)C2CSC3(C)CCC(=O)N23)cc1 (configuration not stated),12,111,93,.
Cc1cc(C)cc(NS(=O)(=O)c2ccc3c(c2)C(C(C)C)C(=O)N3)c1 (configuration not stated),-34,89,65,110
O=C(N=Nc1c(O)[nH]c2ccccc12)c1ccc2c(c1)OCO2,-29,98,88,102
Cc1ccc(-n2c(-c3ccco3)nc3c(cnn3-c3ccccc3Cl)c2=O)cc1,15,101,100,108

(listing goes on)
SMILES	HCMV NEC inh	Sa growth 42C	Sa growth 42C second temp	GIV Gai3 FP
Cc1ccc(-c2noc(Cn3nc(C(=O)O)c4ccccc4c3=O)n2)cc1	-10	84	91	.
O=C(Nc1nc2c(cc3c4c(cccc42)CC3)s1)c1ccc(S(=O)(=O)N2CCCC2)cc1	-22	.	.	100
CCOc1cccc2sc(N3CCN(C(=O)C4CC4)CC3)nc12	.	100	76	101
COC(=O)N/N=C1\CCCCc2ccccc21	-20	105	83	.
Cc1cc(C)cc(NC(=O)Cn2c(=O)c3ccccc3n3nncc23)c1	-37	112	90	107
Clc1ccc(-c2nnc(N3CCOCC3)o2)cc1	2	86	102	107
COc1ccc(-c2cnc(N)s2)cc1	-10	116	83	.
CSc1nnc(NC(=O)c2nc(S(=O)(=O)Cc3ccc(F)cc3)ncc2Cl)s1	-34	94	90	101
Cc1cc2oc(=O)cc(C)c2c2occ(-c3ccc(Cl)cc3)c12	-23	102	87	103
CCOC(=O)C1CCN(S(=O)(=O)c2cc(Br)cc3c2N(C(=O)CC)CC3)CC1	-6	93	96	97
O=C(COC(=O)c1ccc2c(=O)n3c(nc2c1)CCCCC3)c1ccc(F)cc1	-14	111	101	.
CC(=O)Oc1ccccc1N(C(C)=O)S(=O)(=O)c1ccc(C)cc1	.	132	82	143
CCc1ccc(S(=O)(=O)c2nnn3c2nc(NCc2cccs2)c2sccc23)cc1	.	88	81	101
Cc1cccc(N2C(=O)c3sc4nccc(=O)n4c3C2=O)c1	-10	123	79	.
CCCNC(=O)c1ccc2c(=O)n(-c3ccc(F)cc3)c(SCC(=O)c3c(C)[nH]c4ccccc34)nc2c1	4	.	.	99
CSc1ncc(Cl)c(C(=O)Nc2ccc(S(=O)(=O)N3CCOCC3)cc2)n1	-55	100	77	104
O=C(Cn1c(=O)cnc2ccccc21)N1CCN(c2ccccc2)CC1	-85	86	95	.
CCN(CC)S(=O)(=O)c1ccc(N=Nc2c(C)[nH]n(-c3ccccc3)c2=O)cc1	-14	101	95	.
COc1cccc(-c2cc(C(=O)NC(C)C)no2)c1	.	105	85	99
COc1ccc(Br)cc1CNC(=O)CCSCc1ccc(C)cc1	.	105	98	106
O=c1oc2ccc(O)cc2s1	3	80	43	102
CCc1ccc(Cc2cnc(NC(=O)C3=NCCN3)s2)cc1	-21	84	70	101
O=C(CCn1nnc2ccccc21)OCC(=O)c1ccc(Cl)c(Cl)c1	-6	108	89	.
CCOC(=O)c1ccc(NC(=O)CC2C(=O)N(c3ccccc3)C(=O)N2C2CCCCC2)cc1 (configuration not stated)	-22	96	72	96
Cc1ccc(-n2ncc(C(=O)N(C)Cc3ccccc3)c2-n2cccc2)cc1	.	74	91	101
Cc1sc2ncnc(NCc3cccnc3)c2c1C	-10	90	71	.
Nc1nc2c(c(=O)[nH]1)C(c1cccc(Cl)c1)CC(=O)N2 (configuration not stated)	-8	.	.	99
COc1ccccc1CNC(=O)C(NS(=O)(=O)c1cccc2nsnc12)c1ccccc1 (configuration not stated)	-10	116	94	102
CN(C)/N=N/c1nc[nH]c1C(N)=O	-53&-21	92&88	77&84	103
O=S(=O)(c1ccccc1)N(Cc1ccccc1)c1ccccn1	-11	95	91	.
CCS(=O)(=O)C(=C1Nc2ccccc2N1)S(=O)(=O)CC	-9	112	87	.
Cc1ccc(Nc2n[nH]c(=O)c3ccccc23)cc1C	-29	103	82	100
CC(O)CNc1nc2c(c(=O)n(Cc3ccc(Cl)cc3)c(=O)n2C)n1C (configuration not stated)	-5	89	100	107
Cn1c2c(c(=O)[nH]c1=O)C(C(F)(F)F)(C(F)(F)F)NC(=O)N2	5	98	98	110
N#Cc1cccc(NC(=O)COC(=O)Cc2ccccc2)c1	5	104	91	.
Cc1c(C(=O)NN)nn(-c2ccc(F)cc2)c(=O)c1C#N	-102	91	101	.
COc1cccc(-c2nn(-c3ccccc3)cc2C(=O)n2nnc3ccccc32)c1	-6	106	94	104
O=C1/C(=C\c2cccc(Cl)c2)Cc2ccccc21	.	88	90	108
Cc1ccc(S(=O)(=O)N2CC=C(C(=O)Nc3cccc(F)c3)CC2)cc1	-26	102	92	105
CCOC(=O)c1oc2ccc(Br)cc2c1Cn1nc(C(=O)O)c2ccccc2c1=O	-3	93	92	.
COc1ccccc1NC(=O)CN1C(=O)/C(=C/c2cc(OC)c(OC)c(OC)c2)SC1=S	-15	.	.	97
O=C(c1ccc(Cn2cc(Br)cn2)cc1)N1CCN(C(=O)c2ccco2)CC1	4	92	92	101
COc1ccc(S(=O)(=O)Nc2ccc(-c3ccc(N4CCCC4)nn3)cc2)c(OC)c1	-69	.	.	102
Cc1cccc(Cc2cnc(NC(=O)CN3CSCC3=O)s2)c1	0	119	103	.
COc1ccc2c(c1)C1(NNc3ccccc3O1)C(=O)N2 (configuration not stated)	-47	39	23	.
Cc1ccc2[nH]cc(CCNC(=O)CN3C(=O)CSc4cccn4-c4ccccc43)c2c1	-26	.	.	103
Nc1nc2c(ncn2COCCOC(=O)c2ccccc2)c(=O)[nH]1	-14	90	90	109
CCCNC(=O)CCn1c(=S)oc2ccccc21	-15	109	94	101
COc1ccc2nc(NC(=O)c3ccc(S(=O)(=O)N4CCC(C)CC4)cc3)sc2c1	.	79	89	100
O=C(Nc1ccc(S(=O)(=O)N(Cc2ccccc2)c2ccccc2)cc1)c1ccc([N+](=O)[O-])cc1	-14	105	87	102
c1cncc(NCc2ccco2)c1	-32	74	89	.
Cn1c(=O)c2c(O)c(C=NCc3ccccc3)c(=O)n(C)c2n(C)c1=O	-9	127	93	105
Cc1cc(C)c(S(=O)(=O)N(C)c2ccccc2)c(C)c1	.	103	83	105
CC(C)(C)/C=N/NC(=O)c1nc(-c2c(F)cccc2Cl)no1	-7	84	71	103
COc1ccc(N(Cc2cccs2)C(=O)c2ccc(Br)o2)cc1	-11	105	87	103
COC(=O)C1=C(N)N(c2ccc(S(N)(=O)=O)cc2)C2=C(C(=O)CCC2)C1c1ccc(OC)cc1 (configuration not stated)	-37	101	83	.
CCCc1cc(N2CCN(c3ccccn3)CC2)n2cnnc2n1	-15	81	82	102
Oc1[nH]c2ccccc2c1C=NCCc1ccccc1	.	103	81	107
COC(=O)c1ccc(CSc2nnc(COc3ccccc3Cl)n2C2CC2)o1	-20	91	93	.
CN(Cc1ccccc1)c1nnc(NC(=O)Nc2cccc(Br)c2)s1	15	99	97	104
CCn1c(O)c(N=NC(=O)c2ccccc2O)c2ccccc21	-89	154	90	101
